RecA intein inh: inhibitors of M. tuberculosis RecA intein splicing; P9WHJ3; cell-free RecA intein splicing, fluorescence; inhibition, %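 (about 9 µM by stock and volumes)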; actives 0.75% (n = 290,000); in the data active means inhibition above about 30%; inconclusive means no clear call, values can overlap the other calls;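 further: 0% = vehicle wells and 100% = reference inhibitor control wells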
Target sequence (P9WHJ3 whole entry, looked up): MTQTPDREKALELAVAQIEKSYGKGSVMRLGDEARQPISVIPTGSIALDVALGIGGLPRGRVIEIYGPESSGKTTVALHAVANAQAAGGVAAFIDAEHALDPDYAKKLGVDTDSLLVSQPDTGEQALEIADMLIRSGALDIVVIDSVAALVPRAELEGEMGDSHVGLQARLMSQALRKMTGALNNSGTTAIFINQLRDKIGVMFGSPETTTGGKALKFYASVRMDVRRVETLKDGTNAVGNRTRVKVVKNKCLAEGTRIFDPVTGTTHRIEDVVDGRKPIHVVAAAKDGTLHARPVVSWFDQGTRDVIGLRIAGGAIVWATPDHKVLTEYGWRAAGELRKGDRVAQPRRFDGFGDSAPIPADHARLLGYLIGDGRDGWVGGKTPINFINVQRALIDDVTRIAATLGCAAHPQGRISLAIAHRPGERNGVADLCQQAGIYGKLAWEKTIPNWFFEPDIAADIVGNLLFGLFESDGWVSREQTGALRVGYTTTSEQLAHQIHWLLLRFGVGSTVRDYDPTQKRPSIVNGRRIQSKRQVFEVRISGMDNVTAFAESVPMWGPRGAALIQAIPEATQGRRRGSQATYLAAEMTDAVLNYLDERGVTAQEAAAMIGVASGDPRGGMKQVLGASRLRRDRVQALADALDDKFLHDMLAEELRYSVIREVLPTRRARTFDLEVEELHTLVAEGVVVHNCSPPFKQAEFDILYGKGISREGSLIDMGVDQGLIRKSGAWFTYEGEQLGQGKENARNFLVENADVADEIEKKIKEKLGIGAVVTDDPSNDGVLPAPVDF
Arbovirus anti: blocks arbovirus infection; actives 0.37% (n = 200,000); arbovirus infection cell-based antiviral screen; inhibition, % at 10 µM;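 active means inhibition from about 30%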;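 further: bluetongue infection of BSR cells; cell survival read as ATP light after 72 h; 0% = infected wells without compound and 100% = uninfected wells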
Mtb growth: M. tuberculosis H37Rv growth inhibitors, H37Rv strain (AID 1626); M. tuberculosis H37Rv growth inhibition; higher % means a stronger effect; inhibition, % at 10 µM, or IC50 in µM where a hit was titrated; actives 0.95% (n = 220,000);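 active means confirmed in a dose series; inconclusive means inhibition above 80% but not taken into the dose series; inactive means below 80% or under 30% at every dose of the series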;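 further: bacteria incubated seven days before Alamar blue readout; 0% = bacteria only wells and 100% = bacteria with antibiotic wells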
YopH inh: YopH (Yersinia) phosphatase inhibition; actives 0.16% (n = 140,000); inhibition, %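 (about 10 µM by stock and volumes)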; fluorescence Ex485/Em525;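 active means inhibition of 50% or more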;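 further: controls were vehicle for no effect and minimum signal wells for full effect; inactives centre near -20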
Mtb bLac sens: beta-lactam sensitization of Mtb H37Rv; actives 0.27% (n = 330,000); AID 434955; M. tuberculosis H37Rv growth with meropenem, percent inhibition; hits of this screen are not shown here; inhibition, % at 25 µM;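 active means about 74% or more and at least 40 points above the plate without the antibiotic, then above 30% in a dose series; inconclusive means first-round hits that could not be retested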;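 further: growth measured after seven days incubation then overnight dye step; 0% = bacteria only wells and 100% = bacteria with antibiotic; twin plates without the antibiotic show which effects depend on it; some results filed as inactive read as strong as hits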
Starred values were filed as active, the others as inactive; u = inconclusive; x = no result given. An excerpt (hit frequency here may not be typical).

SMILES,RecA intein inh,Arbovirus anti,Mtb growth,YopH inh,Mtb bLac sens
COc1ccc(S(=O)(=O)N(C)CC(=O)NCc2cccnc2)cc1C,-1.6,10,-1%,-6,-8
Cc1nn(CCCC(=O)NCCc2ccccc2)c(=O)c2nn(-c3ccccc3)c(C)c12,-3.5,x,x,x,4
CC(CNc1nc2ccc(Cl)cc2n2cnnc12)c1ccccc1 (centres undefined),-5.4,x,x,x,7
CCOC(=O)c1c(C)[nH]c(C)c1C(=O)COc1ncnc2cc([N+](=O)[O-])ccc12,-0.6,-3,-4%,x,-8
Cc1c(C(=O)O)c(=O)n(-c2ccccc2)n1-c1ccccc1,1.5,20,-5%,x,-3
COc1ccc(OC)c(/C=N/Nc2cc(C)nc(N3CCOCC3)n2)c1,-1.2,x,1%,x,-1
COc1cccc(-c2nc(CS(=O)(=O)CC(=O)NCCCN3CCOCC3)c(C)o2)c1,-1.8,x,x,x,5
Cn1c(N)c(C(=O)COC(=O)c2ccc3c(c2)C(=O)N(c2ccc(Cl)cc2)C3=O)c(=O)n(C)c1=O,3.3,0,5%,x,-5
CCOCCc1nnc(NC(=O)C2CC(=O)N(c3ccc(OCC)cc3)C2)s1 (centres undefined),-0.7,x,x,x,-11
CCOc1ccc(N(CC(=O)N2CCOCC2)S(=O)(=O)c2ccc(SC)cc2)cc1,-0.7,x,x,x,0
CCc1ccc(NC(=O)CCc2c(C)nn(-c3ccc(N4CCCCC4)nn3)c2C)cc1,-0.6,x,x,x,3
CCc1cccc(C)c1NC(=O)COn1nnc2ccc(C(F)(F)F)cc21,0.5,10,0%,-33,7
COc1cc(/C=C2\C(=O)N(c3ccc(NC(C)=O)cc3)N=C2c2ccccc2)ccc1O,83*,-7,4%,x,3
COc1ccccc1NC(=O)NCCCN1CCN(c2cccc(Cl)c2)CC1,-1.0,-16,14%,-9,-4
CCOC(=O)CCC(=O)Nc1ccc(S(=O)(=O)N2CCCC2)cc1,0.0,8,4%,2,4
CC(=O)c1ccc(C(=O)N2CCCC(N3CCN(c4ccc(F)cc4)CC3)C2)s1 (centres undefined),-0.8,x,x,x,-7
O=C1CCc2cc(S(=O)(=O)N3CCC(C(=O)NC4CCCCCCC4)CC3)ccc2N1,x,-7,-11%,-18,-4
CC(=O)Nc1ccc(NC(=O)C(C)OC(=O)C2CCN(S(=O)(=O)c3cccs3)CC2)cc1 (centres undefined),0.9,x,-4%,x,-6
CCOc1ccccc1-c1nc(CN2CCC(C(=O)N3CCOCC3)CC2)c(C)o1,2.5,x,x,x,u
Cc1ccc(-n2c(-c3cccs3)nc3ccccc3c2=O)cc1,-2.8,-5,x,-2,20
COCCCNC(=O)c1ccc2c(c1)ncn2-c1ccc(C)cc1C,1.6,x,x,x,-2
O=C(CN1C(=O)c2ccccc2S1(=O)=O)c1ccc(F)cc1,-2.7,x,-11%,x,-4
CC(=O)CCc1c[nH]c2c(C(=O)O)cccc12,-2.0,0,-1%,-25,0
NC(=S)NNC(=O)c1cc(C(F)(F)F)cc(C(F)(F)F)c1,-2.2,x,1%,x,-14
Nc1ccccc1NC1CCCCC1,x,0,u,x,x
COc1cc(=O)[nH]c(SC(C)C(=O)Nc2nc3c(s2)CCCC3)n1 (centres undefined),0.5,x,x,x,3
CCN(CC)C(=O)C1CCCN(Cc2sccc2C)C1 (centres undefined),-2.0,12,-5%,-14,-3
CCOc1ccc(-c2c(C#N)c(N)nc3c2c(=O)n(C)c(=O)n3C)cc1OC,-1.5,4,1%,-18,-11
CC1=C(C(=O)Nc2ccccc2F)C(c2cccs2)C2=C(CCCC2=O)N1 (centres undefined),-1.7,-10,-2%,x,5
Nc1ncccc1OCc1ccc(Cl)c(Cl)c1,0.4,x,15%,x,5
CN(C(=O)CSc1nnnn1-c1ccc(O)cc1)C1CCS(=O)(=O)C1 (centres undefined),-0.3,-2,0%,x,0
CCOC(=O)N1CCC(Nc2c(NCCN3CCN(c4ccccc4F)CC3)c(=O)c2=O)CC1,2.2,2,1%,-45,-6
Cc1ccc(O)c(NC(=O)CSc2ccc(Cl)cc2)c1,0.0,4,1%,x,-1
O=C(COc1ccc(Br)cc1)N/N=C1/SCC(=O)N1Cc1ccccc1,5.0,3,-5%,-39,2
Cc1cc2cc(C=O)c(Cl)nc2cc1C,2.2,2,-3%,-39,-6
OCc1nc2ccccc2n1C/C=C/c1ccccc1,2.1,12,-10%,-13,1
COc1ccc(Cl)cc1NC(=O)Nc1cn(C)nc1C,0.5,x,12%,x,1
C=CCn1c(SCC(=O)NC(C)(C)C)nnc1-c1ccccc1O,-0.2,4,-10%,6,-6
COC(=O)c1[nH]c2cc(OC)ccc2c1NC(=O)c1nonc1C,-1.4,-13,-6%,-7,3
O=C(Nc1ccc(Cl)cc1)Nc1ccc(C(=O)N2CCOCC2)cc1,0.0,x,-8%,x,-4
Cc1c(NC(=O)C23CC4CC(CC(Br)(C4)C2)C3)c(=O)n(-c2ccccc2)n1C,-2.2,x,x,x,1
CCN(CCC#N)c1ccc(N2C(=O)CCCC2=O)cc1[N+](=O)[O-],-2.6,x,x,x,-3
COc1ccc(CNS(=O)(=O)c2ccc3c(c2)N(C(C)=O)CCO3)cc1,-0.6,x,x,x,4
C[N+](C)(C)CCCCCCCCCC[N+](C)(C)C,-1.1,9,-12%,-27,-5
Cc1cc(C)nc(SCC(=O)N/N=C/C=C/c2ccccc2)n1,-0.5,3,-4%,-36,-2
CC1(C)CC(=O)C(C(C2=C(O)CC(C)(C)CC2=O)c2cccc(O)c2)C(=O)C1 (centres undefined),x,13,-13%,-14,2
COC(=O)c1ccccc1NC(=O)c1ccc2c(c1)OCCO2,0.6,3,-6%,-28,-2
CC(=O)N1C(C(=O)O)Cc2c([nH]c3ccccc23)C1(C)C (centres undefined),-2.7,x,x,x,8
COc1cccc(C2=NN(C(=O)c3ccco3)C(c3ccco3)C2)c1 (centres undefined),0.7,x,x,x,4
Nc1nc2c(F)c(F)c(F)cc2s1,0.0,9,1%,x,-3
Cc1cccc(/C(N)=N/OC(=O)N2CCOCC2)c1,3.4,-36,-2%,-26,9
Cc1cc(C)n2nc(C(=O)OCC(=O)Nc3ccc(F)cc3F)nc2n1,-3.6,x,x,x,2
CC(=O)NCCC(=O)N1CCCC(C(=O)c2ccc3c4c(cccc24)CC3)C1 (centres undefined),2.0,2,2%,x,4
CCCNC(=O)c1cn(CC)c2cc(N3CCN(C)CC3)c(F)cc2c1=O,-1.0,11,9%,21,-1
CN1CCN(C(=O)/C=C/c2c(F)cccc2Cl)CC1,-0.3,x,x,x,-4
COc1ccc(-c2cc(C(=O)Nc3ccc(C(N)=O)cc3)c3ccccc3n2)cc1,0.1,x,x,x,29
NC(=O)CSc1ccc(F)cc1,-1.6,8,3%,x,-4
COc1ccccc1N1CCN(C(=O)c2ccc3c(c2)NC(=O)C(CSCc2ccccc2C)N3)CC1 (centres undefined),7.7,x,x,x,22
CCCN(C(=O)COC(=O)C12CCC(=O)N1c1ccccc1S2)c1c(N)n(Cc2ccccc2)c(=O)[nH]c1=O (centres undefined),-1.9,x,x,x,5
Cc1ccc(/C=C2/C(=O)c3ccc(C(=O)O)cc3C2=O)o1,1.3,-2,-5%,x,x

Quoted at random: 3 records from the list.
SMILES,RecA intein inh,Arbovirus anti,Mtb growth,YopH inh,Mtb bLac sens
CCCNC(=O)c1cn(CC)c2cc(N3CCN(C)CC3)c(F)cc2c1=O,-1.0,11,9%,21,-1
COC(=O)c1ccccc1NC(=O)c1ccc2c(c1)OCCO2,0.6,3,-6%,-28,-2
Cc1c(NC(=O)C23CC4CC(CC(Br)(C4)C2)C3)c(=O)n(-c2ccccc2)n1C,-2.2,x,x,x,1

Next part:
SMILES,RecA intein inh,Arbovirus anti,Mtb growth,YopH inh,Mtb bLac sens
COc1cccc(N2CCN(c3ccc4nnc(CCC(=O)Nc5cccc(C(C)=O)c5)n4n3)CC2)c1,-0.3,x,x,x,15
O=C(Oc1ccc2c3c(c(=O)oc2c1)CCC3)c1ccccc1[N+](=O)[O-],7.2,-3,-2%,-12,-6
Cc1ccc(S(=O)(=O)N2CCC(=O)N(CCOCc3ccc(F)cc3)CC2)cc1,2.5,3,-4%,-25,5
CCOc1ccc(S(=O)(=O)N(CC(=O)N2CCc3ccccc32)Cc2ccco2)cc1,3.9,4,7%,-25,0
CC/C(=N\NC(N)=O)c1ccc(OC)c(OC)c1,-3.2,x,3%,x,0
O=C(CN1C(=O)NC2(CCCC2)C1=O)OCCOc1ccc(Cl)cc1Cl,0.9,x,x,x,-4
COc1ccc(NCc2ccc([N+](=O)[O-])s2)cc1,-8.1,-16,59µM*,48,76
Cc1ccc(O)c(NC(=S)NC(=O)COc2ccc(Br)cc2)c1,-0.9,10,4%,x,6
O=C(Nc1ccccc1N1CCN(C(=O)c2ccccc2)CC1)c1ccc(Br)o1,0.7,x,x,x,4
COc1cc(-c2cc(C(=O)NN3CCN(C)CC3)c3ccccc3n2)cc(OC)c1OC,0.9,0,2%,-21,13
CC1CCCCC1NC(=O)CCCn1c(=S)[nH]c2ccccc2c1=O (centres undefined),-1.0,5,-4%,x,-2
CC(=O)c1cccc(N2C(=NC(=O)CCc3ccccc3)SC3CS(=O)(=O)CC32)c1 (centres undefined),1.6,x,x,x,2
CCCOc1ccc(C(=O)N2CCN(c3ccc(N)cc3Cl)CC2)cc1,1.4,-2,-4%,-20,50
CCCNC(=O)N1CCN(S(=O)(=O)c2ccc(C)c(C)c2)CC1,-1.5,x,-7%,4,-14
CC(CC(=O)O)CC(=O)NNC(=O)c1cccc(Br)c1 (centres undefined),-3.7,2,-1%,x,-6
Cc1c(C(=O)N/N=C/C(C)C)[nH]c2c([N+](=O)[O-])cccc12,1.3,-14,9%,-28,-5
CN(C)S(=O)(=O)c1ccc(Cl)c(NC(=O)COC(=O)CCC(=O)c2cccs2)c1,0.7,x,7%,x,-2
COc1cc(NC(=S)NCCCO)c(OC)cc1Cl,-2.5,0,1%,x,-2
Cc1ccc(S(=O)(=O)Nc2nc3ccccc3nc2NCc2ccco2)cc1C,1.8,19,x,5,0
CCN1C(=O)CSC1=Nc1ccc(OC)cc1,-1.5,x,x,x,-5
O=C(CCCCn1c(=O)[nH]c2ccccc2c1=O)NCc1ccc2c(c1)OCO2,-0.1,-3,5%,2,-3
CCC(C)c1ccc(NC(=O)Nc2cccnc2)cc1 (centres undefined),3.5,x,x,x,0
CC(=O)Nc1ccc(S(=O)(=O)NCC2CCC(C(=O)NCCCN(C)Cc3ccccc3)CC2)cc1 (centres undefined),-0.4,x,x,x,-3
CCOC(=O)c1cnn(-c2ncnc3c2cnn3C)c1N,-2.7,x,3%,x,5
C/C(=N\NC(=O)C(O)c1ccccc1)c1ccc(Cl)cc1 (centres undefined),5.2,x,x,x,-8
COc1ccc(CN2CC(=O)N(c3ccccc3C)C2=S)cc1OC,-3.8,5,70%,x,74
COCCN1C(=O)N(c2cccc(C)c2)C(=O)C1CC(=O)Nc1cc(OC)cc(OC)c1 (centres undefined),1.2,x,x,x,-7
Cc1ccc2nc(C(F)(F)F)c(C#N)c(N)c2c1,x,2,3%,-31,6
CC1CC(C)CN(C/C=C/c2ccccc2[N+](=O)[O-])C1 (centres undefined),0.2,-5,7%,-2,-8
O=C(COc1ccc(-c2ccccc2)cc1)N1CCN(S(=O)(=O)Cc2ccccc2)CC1,x,-1,2%,-16,7

Profiles as entered above. Order of screens: RecA intein inh	Arbovirus anti	Mtb growth	YopH inh	Mtb bLac sens
CCOC(=O)c1cnn(-c2ncnc3c2cnn3C)c1N is listed with -2.7	x	3%	x	5
CC1CC(C)CN(C/C=C/c2ccccc2[N+](=O)[O-])C1 (centres undefined) is listed with 0.2	-5	7%	-2	-8
